From PubChem
HPGD block: qHTS Assay for Inhibitors of HPGD (15-Hydroxyprostaglandin Dehydrogenase); 15-hydroxyprostaglandin dehydrogenase [NAD(+)] (Homo sapiens), P15428; purified HPGD, NADH fluorescence kinetic, PGE2 substrate; Potency, µM, without a hit: at the highest dose activity change, negative = inhibition, hits mostly inhibitors; 4.3% of 150,000 active; active = well fitted inhibition curve with a large enough effect (not every such curve was filed as active); inconclusive = small, poorly fitted or top-dose-only effect, or another doubt; inactive = no such curve, though single readings can be large or run the other way;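 note: top concentration of the series not given in the record; plate controls included wells without enzyme; inactives centre near -10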
Target sequence (P15428 whole entry, looked up): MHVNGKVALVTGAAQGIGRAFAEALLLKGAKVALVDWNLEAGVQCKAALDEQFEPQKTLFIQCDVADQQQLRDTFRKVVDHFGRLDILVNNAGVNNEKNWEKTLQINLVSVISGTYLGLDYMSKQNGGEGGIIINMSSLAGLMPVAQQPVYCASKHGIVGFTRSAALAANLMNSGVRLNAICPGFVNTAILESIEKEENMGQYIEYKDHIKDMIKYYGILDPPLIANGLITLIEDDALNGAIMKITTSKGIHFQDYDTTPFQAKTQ
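20 nM HPGD preincubated 15 min at room temperature with compound in 50 mM Tris-HCl pH 8, 0.01% Tween 20. Started with 1 mM NAD+ and 30 uM prostaglandin E2; NADH fluorescence (360/450 nm) read 5 times over 30-s intervals, last minus first.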
Starred values were filed as active, the others as inactive; ? = inconclusive; & = joins results of further samples. % is set by controls: 0 for no effect and ±100 for the full control effect; potency is the fitted concentration of half-maximal effect.

HPGD block	Structure
-19.0%	O=S(=O)(NCCSCc1c(Cl)cccc1Cl)c1ccc2c(c1)OCCO2
1.8%	CC1CCCCN1C(=O)c1ccccc1NC(=O)c1ccco1 (centres undefined)
3.6%	CCc1ccc(OCCOCC(O)CNC(C)(C)C)cc1 (centres undefined)
-0.9%	C=CCNCCOc1ccc(C(C)(C)c2ccccc2)cc1
6.4%	CC(=O)Nc1cccc(C(=O)/C=C/c2ccc(/C=C/C(=O)c3cccc(NC(C)=O)c3)cc2)c1
-13.4%	COc1cc(CCC(=O)N2CCN(S(=O)(=O)c3ccc(C)c(C)c3)CC2)cc(OC)c1OC
-3.2%	Cc1ccc(S(=O)(=O)c2c(COC(=O)c3ccc(Cl)cc3)c(-c3ccccc3)nn2C)cc1
-16.2%	N=C(N)SCc1ccccn1
?	CCNc1ccc(Br)cc(C(=O)/C=C/c2ccc(Cl)cc2)c1=O
-1.8%	CCCCC1=CC2=C(c3ccco3)C(=O)C(C)(OC(=O)c3ccc(OC)cc3)C(=O)C2=CN1CC1CC1 (centres undefined)
-23.7%	Cc1ccc(C(=O)Nc2nc3ccc(S(C)(=O)=O)cc3s2)s1
-3.3%	CN(C)S(=O)(=O)c1cccc(NC(=O)CSc2nc3c(cc2C#N)C(=O)CC(C)(C)C3)c1
-9.5%	Cc1cc(C)n(-c2nnc(NC34CC5CC(CC(C5)C3)C4)nn2)n1
-6.0%	COc1ccc(C(=O)N2CCCC2)cc1S(=O)(=O)N1CCC(C)CC1
-8.0%	Cc1oc(CC(C)C)cc1C(=O)Nc1ccc(C(=O)O)cc1
-4.6%	Cn1c(=O)c2c(ncn2CC(=O)Nc2ccccc2)n(C)c1=O
-6.6%	COc1ccccc1NCCC(=O)OCC(=O)NC1CCCCCC1
-11.9%	CSc1nc2sc3c(c2c(=O)n1C)CCCC3
?	CCn1c(SCc2ccc(C#N)cc2)nnc1-c1ccc(S(=O)(=O)N2CCCCC2)cc1
-3.7%	CCNC(=O)C1CN(S(=O)(=O)c2ccccc2)CCN1S(=O)(=O)c1ccccc1 (centres undefined)

An excerpt from above in order of their number in HPGD block, descending.
canonical_smiles	HPGD block
Cc1ccc(S(=O)(=O)c2c(COC(=O)c3ccc(Cl)cc3)c(-c3ccccc3)nn2C)cc1	-3.2%
Cn1c(=O)c2c(ncn2CC(=O)Nc2ccccc2)n(C)c1=O	-4.6%
Cc1cc(C)n(-c2nnc(NC34CC5CC(CC(C5)C3)C4)nn2)n1	-9.5%
N=C(N)SCc1ccccn1	-16.2%

Continued.
HPGD block	Structure
-9.3%	Cc1cc(N2CCOCC2)ccc1/C=C1\NC(=O)N(CC(=O)Nc2ccccc2C)C1=O
-15.0%	COC(=O)Cn1cc(C(=O)c2ccco2)c2ccccc21
-0.1%	O=C1CCCN1CCNC(=S)Nc1ccccc1
-29.4%	O=C1c2oc3ccc(Cl)cc3c(=O)c2C(c2ccccn2)N1CCCN1CCOCC1 (centres undefined)
-6.7%	CN1C(=O)S/C(=C/c2cccnc2)C1=O
2.2%	CC(=O)c1c(C)nc(C)nc1NC(=O)Cc1ccccc1
-13.8%	O=C(Nc1ccc(Cl)cc1F)c1ccc(COc2c(F)c(F)c(F)c(F)c2F)o1
-13.4%	O=C(COc1ccccc1Cl)N1CCN(c2ncccn2)CC1
-13.2%	COCCn1c(=O)c(-c2ccc(F)cc2)nc2cnc(Oc3ccc(OC)cc3)nc21
2.8%	O=C(N1CCOCC1)N1CCN(C(=O)N(c2ccccc2)c2ccccc2)CC1
?	Cc1cc(C)n2ncc(C(=O)NCCc3ccccc3)c2n1
-11.2%	Cc1ccc(-c2cc(NC(=O)CSc3n[nH]c(N)n3)n(-c3ccccc3)n2)cc1
-12.6%	COc1cc(/C=C2\SC(=S)N(Nc3ccccc3)C2=O)ccc1O
0.7%	Cc1ccc(S(=O)(=O)Nc2ccc(S(=O)(=O)Nc3ncccn3)cc2)cc1
-14.6%	COC(=O)c1c(NC(=O)Cc2cccs2)sc(C)c1C
-17.1%	CCCCCOC(=O)c1ccc(OC(=O)c2cncc(Br)c2)cc1
-11.1%	Cc1sc(NC(=O)CSC2=NCCS2)nc1-c1ccccc1
-7.6%	Cc1cccc(C)c1NC(=O)c1cn(-c2ccccc2)nc1-c1ccccc1
-5.9%	CCOC(=O)CN1C(=O)COc2ccc(C(C)(C)C)cc21
-10.9%	COc1ccc2c(c1)O[C@H](c1ccc3c(c1)OCO3)[C@@H](OC(=O)NCc1ccco1)C2=O
-10.9%	O=C(C(Sc1ccccc1)c1ccccc1)N1CCN(c2ccccc2F)CC1 (centres undefined)
-5.2%	CCCC1=NN(C(=O)CCc2ccccc2O)C(O)(C(F)(F)F)C1 (centres undefined)
?	CCOC(=O)c1ccccc1NC1c2ccccc2C(=O)N1c1ccc(C)cn1 (centres undefined)
0.3%	COc1ccc(-c2csc3ncnc(NCCN4CCOCC4)c23)cc1
-12.7%	CCN(CC)c1nc2n(c(=S)n1)CCS2
-8.9%&-15.3%	O=C(O)[C@H]1CN(CCCP(=O)(O)O)CCN1
-5.6%	COc1ccc(CC(=O)Nc2nc3ccc(F)cc3s2)cc1S(=O)(=O)N1CCOCC1
-14.2%	CSc1nc(O)c(Cc2ccccc2)c(=O)[nH]1
-10.3%	CC(C)NC(=O)N1CC2(CCN(C(=O)c3ccncc3)CC2)C1
-15.2%	Cc1nc(SCC(=O)c2cc3ccccc3oc2=O)c(C#N)c(-c2ccccc2)c1C(=O)Nc1ccccc1
-6.8%	CCN(CC)CC(O)COCCC12CC3CC(CC(C3)C1)C2 (centres undefined)
2.6%	Cn1c(SCC(=O)NCCN2C(=O)CSC2=O)nnc1-c1ccccc1
-3.4%	O=[N+]([O-])c1nn(-c2ccc3c(c2)OCCO3)n(O)c1=Nc1ccccc1
0.6%	O=C(NC1CCCCC1)N1CCN(c2ccccc2)CC1
?	O=C(NN=C1CCCC1)c1cccs1
-3.3%	CCN(CC)CCOc1c(Br)ccc2c1sc1nc3n(c(=O)c12)CCC3
-10.4%	CCOC(=O)c1c(C)[nH]c(C(=O)COC(=O)CCC(=O)c2ccc3c(c2)OCCO3)c1C
1.1%	CS(=O)(=O)CCC(C(=O)OCc1ccc(Cl)cc1)N1C(=O)c2ccccc2C1=O (centres undefined)
-4.6%	COC(=O)CN1C(=O)C(O)(CC(=O)c2ccccc2)c2ccccc21 (centres undefined)
-16.4%	Nc1ccc(OCc2ccccc2)cc1
-4.7%	Cc1nn(Cc2ccc(F)cc2)c(C)c1NC(=O)c1nn(C)cc1Cl
-18.4%	COc1ccc(OCc2cccc(C(=O)Nc3ccc(CN4CCCCC4)cc3)c2)cc1
-8.1%	CCOC(=O)Cc1csc(NC(=O)CSc2ncnc3c2cnn3-c2ccccc2Cl)n1
-10.8%	CCCCn1c(-c2ccccc2)nnc1-c1ccccc1
?	C/C(N)=C(/C#N)C(=O)COC(=O)CCC1CCCC1
-4.2%	NC1=NC(=O)C(CC(=O)c2ccc(Cl)cc2)S1 (centres undefined)
-9.4%	CC(=O)OC1c2ccccc2C(=O)N1c1ccccc1C (centres undefined)
-8.6%	Cc1nc2ccc(S(=O)(=O)N(C)CC(=O)NCc3ccc4c(c3)OCO4)cc2s1
8.91µM*	COc1ccc2nc(NC(=S)N(C)C)sc2c1
-22.0%	Cc1cc(S(=O)(=O)N2CCC(NC(=O)C34CC5CC(CC(C5)C3)C4)CC2)ccc1-n1cnnn1

Going on with the list.
HPGD block	Structure
-4.7%	CC(=O)Nc1ccc(NC(=O)CN(c2ccccc2Cl)S(C)(=O)=O)cc1
-11.2%	CCCCC(=O)Nc1ccc(C(=O)NCC(=O)OC)cc1
?	Cc1nc(N2CCN(c3ccccc3)CC2)nc2c1C(=O)CC(C)C2 (centres undefined)
-7.1%	C=CCOC(=O)C1=C(C)Nc2ncnn2C1c1cc(Br)ccc1F (centres undefined)
-17.7%	COc1ccc(Oc2ncc3nc(-c4cccs4)c(=O)n(C)c3n2)cc1
-25.6%	N#CC1=C(N)C(C#N)(C#N)[C@H](c2c(F)cccc2F)[C@H]2CC3(CC=C12)OCCO3
-0.1%	CC1=C(C(=O)OCC2CCCO2)C(c2ccc(O)cc2)NC(=O)N1 (centres undefined)
-9.7%	CC1=C(C(=O)Nc2cccnc2)C(c2ccc(C(C)C)cc2)n2ncnc2N1 (centres undefined)
-6.1%	Cc1cccc(C)c1NC(=O)C(c1ccc([N+](=O)[O-])cc1)N1CCCCC1 (centres undefined)
-17.3%	CCCCN(CCCC)C(=O)/C=C/c1cccc([N+](=O)[O-])c1
0.9%	O=C(CN(CCc1ccccc1)C(=O)CNS(=O)(=O)c1ccc(F)cc1)NCC1CCCO1 (centres undefined)
-7.2%	CNC(=O)c1sccc1-n1cccc1
?	COc1cccc(-c2nn(C)c3sc(C(=O)NCc4ccc5c(c4)OCO5)cc23)c1
?	Cn1c(SCC(=O)NC2CCCCC2)nnc1-c1cc2cc(Cl)ccc2o1
-17.3%	COc1cccc(/C=N/NC(=O)c2cnccn2)c1
3.1%	Cc1cc(NC(=O)CN2C(=O)C3CC=CCC3C2=O)no1 (centres undefined)
-8.7%	Cc1ccc(S(=O)(=O)c2nc(S(C)(=O)=O)sc2NCC2CCCO2)cc1 (centres undefined)
-3.6%	O=C(NNc1ncc(C(F)(F)F)cc1Cl)c1c(Cl)cccc1Cl
-3.2%	CC(C)COC(=O)C(N)C(C(=O)OCC(C)C)c1ccccc1 (centres undefined)
-8.7%	Cc1c(Cl)cccc1NC(=S)N=Nc1c(O)n(CN2CCOCC2)c2ccccc12
-13.4%	Cc1ccc(-n2nc3ccc(NC(=O)/C=C/c4ccco4)cc3n2)cc1C
-6.0%	Cc1ccc(C(=O)NCCNC(=O)CN2CCOCC2)cc1
-19.4%	O=C(NCc1cccc(Cl)c1)c1ccco1
-6.2%	CN(CCCNC(=O)c1ccc(/C=N/O)nc1)CCCN(C)Cc1ccccc1
?	CCOc1ncccc1C(=O)OCC(=O)Nc1ccc(-c2nc3ccc(C)cc3s2)cc1
-18.0%	Cc1cc(NC(=O)COC(=O)c2oc3c(Cl)cccc3c2C)no1
-19.8%	CCOC(=O)C1CCN(CCC(=O)Nc2cccc(Cl)c2)CC1
0.0%	C=CCNc1nc(C2(C)CC3(CC(C)(C)OC3=O)C(=O)O2)cs1 (centres undefined)
10µM*	O=C(NCc1ccc(Cl)cc1)c1ccccc1Oc1ccccc1
?	COc1ccc(/C(C)=N/NC(=O)c2ccc(CSc3cccc4cccnc34)cc2)cc1OC
-12.7%	O=C(NCCCN1CCOCC1)c1ccc(Br)s1
-1.9%	CCc1nnc(NC(=O)CCC(=O)N2CCN(C3c4ccccc4-c4ccccc43)CC2)s1
10µM*	O=C(N/N=C/c1ccc(N2CCCCC2)o1)c1ccccc1[N+](=O)[O-]
-3.3%	O=C(O)C1CC[C@@](C(=O)O)(c2ccccc2)c2ccccc21 (some centres undefined)
?	COc1ccccc1-c1nc(C#N)c(N2CCc3ccccc3C2)o1
?	CC(C)(C)c1ccc(-c2c(C#N)c(N)nc3c2CCCC3)s1
-10.4%	O=C(COC(=O)/C=C/c1ccc(Cl)cc1)Nc1ccc2c(c1)OCCO2
0.7%	Cc1ccccc1NS(=O)(=O)c1ccc(NC(=O)CSCc2ccc(Br)cc2)cc1
?	O=c1oc2cc(Oc3c([N+](=O)[O-])cc(C(F)(F)F)cc3[N+](=O)[O-])ccc2c2c1CCCC2
-12.9%	COc1ccc(N(C(=O)CSCC(=O)Nc2cc(C)on2)C(C(=O)NC2CCCCC2)c2ccc(O)c(O)c2)cc1 (centres undefined)

A stretch from further up, for reference:
HPGD block	Structure
-10.4%	O=C(COC(=O)/C=C/c1ccc(Cl)cc1)Nc1ccc2c(c1)OCCO2
0.7%	Cc1ccccc1NS(=O)(=O)c1ccc(NC(=O)CSCc2ccc(Br)cc2)cc1
?	O=c1oc2cc(Oc3c([N+](=O)[O-])cc(C(F)(F)F)cc3[N+](=O)[O-])ccc2c2c1CCCC2
-12.9%	COc1ccc(N(C(=O)CSCC(=O)Nc2cc(C)on2)C(C(=O)NC2CCCCC2)c2ccc(O)c(O)c2)cc1 (centres undefined)

More results follow.
HPGD block	Structure
-7.9%	Cc1c(-c2ccccc2)nc2ccccc2c1C(=O)Oc1ccc([N+](=O)[O-])cc1
1.2%	CCOC(=O)COn1c2c(c3c4no[n+]([O-])c4ccc31)CCCC2
-1.2%	Cc1nc[nH]c(=O)c1Br
-7.5%	O=C(NC1CC2CCCC(C1)N2C1CC1)NC12CC3CC(CC(C3)C1)C2 (centres undefined)
-18.1%	CC(=O)Nc1ccc(S(=O)(=O)NCC2CCC(C(=O)NC3CCCCCC3)CC2)cc1 (centres undefined)
-12.9%	COc1cc(/C=C(\NC(C)=O)C(=O)Nc2cccc(O)c2)ccc1OC(C)=O
-8.6%	COc1cnc(-c2ccccn2)nc1Sc1c(Cl)cccc1Cl
-10.4%	Fc1ccc2nc3[nH]c4ccccc4c3nc2c1
?	CN(C)S(=O)(=O)c1ccc(N2CCCC2)c(C(=O)NC(c2ccccc2)c2ccccc2)c1
-2.3%	COc1ccc(N2C(=O)CCC(C(=O)N3CCOCC3)C2c2ccc(F)cc2)cc1 (centres undefined)

HPGD block, what is marked active above
HPGD block	Structure
8.91µM*	COc1ccc2nc(NC(=S)N(C)C)sc2c1
10µM*	O=C(NCc1ccc(Cl)cc1)c1ccccc1Oc1ccccc1
10µM*	O=C(N/N=C/c1ccc(N2CCCCC2)o1)c1ccccc1[N+](=O)[O-]

More results:
HPGD block	Structure
?	O=S1(=O)C[C@@H](N2CCOCC2)[C@H](N2CCOCC2)C1
-1.1%	Cc1ccc(S(=O)(=O)Nc2c(C)n(C)n(-c3ccccc3)c2=O)cc1
-12.2%	Cc1nnc(SCC(=O)N2CCOCC2)[nH]c1=O
-18.4%	N#C/C(=C\c1cn(-c2ccccc2)nc1-c1cc2ccccc2o1)c1nc2ccccc2[nH]1
-1.5%	Cn1nnnc1SCc1ccccc1[N+](=O)[O-]
-5.4%	CC(=O)N1CCC2(CCN(Cc3ccncc3)CC2)CC1

Some of the compounds tested; the hit share may differ from the screen's.
